High-throughput results (PubChem BioAssay)
Tgondii IFNg = blocks Toxoplasma gondii growth in the presence of IFN-gamma; activity change, negative = inhibition, %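 (about 20 µM by stock and volumes)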; AID 1259416; hit rate 3.8% among 69,000; Toxoplasma gondii growth in IFN-gamma-treated host cells; stronger effect = lower value; reference of the scale not given here;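 active = below -70%; inconclusive = fit judged invalid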;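 also: host cells are HeLa cells infected with Toxoplasma gondii; parasite growth read as luciferase light; one replicate is shown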
* marks the source's active call; other numbers are inactive results; i = inactive; u = inconclusive.

Sample of the layout:
canonical_smiles | Tgondii IFNg
CSc1nnc(C2CCCN(CC(=O)Nc3nccs3)C2)n1C (stereo unspecified) | 17.5
Cc1cccc(-c2nc(CCNC(=O)c3ccccc3Br)cs2)c1 | 406.5

The whole of this part, from the start:
canonical_smiles | Tgondii IFNg
CSc1nnc(C2CCCN(CC(=O)Nc3nccs3)C2)n1C (stereo unspecified) | 17.5
Cc1cccc(-c2nc(CCNC(=O)c3ccccc3Br)cs2)c1 | 406.5
COc1ncccc1CN1CCC(CNC(=O)c2ccncc2)C1 (stereo unspecified) | 2.4
Cc1ccc2c(c1)NC1(CCN(C(=O)Nc3ccccc3Cl)CC1)c1cccn1-2 | 30.5
CO[C@H]1CN(C)C(=O)c2cc(NC(=O)c3ccc4c(c3)OCO4)ccc2OC[C@@H](C)N(CCC(F)(F)F)C[C@@H]1C | -35.8
CN(C)CCO[C@H]1CN(C(=O)c2ccnnc2)[C@H]2COC[C@@H]12 | 0.4
O=C(c1coc(CN2CCN(c3ccccc3F)CC2)n1)N1CC=CC1 | 8.8
CCN1CCO[C@H]2CN(C(=O)Cc3ccsc3)CC[C@@H]2C1 | -1.7
C=CCN1CCN(C)C2(CCN(Cc3nccn3C)CC2)C1=O | -5.9
Cn1nc2c(c1C(=O)N1C3CCC1CC(O)(c1ccc4c(c1)OCO4)C3)CCCC2 (stereo unspecified) | -7.6
Cc1nc2ccc(CC(=O)NCc3nc(C4CCCCC4)no3)cc2[nH]1 | -2.4
O=C(c1ccco1)c1coc2ccc(O)cc12 | 291.2
CCN1CC23C=CC(O2)C(C(=O)N2CCC4(CC2)NC(=O)c2cccnc2N4C)C3C1=O (stereo unspecified) | 1.2
NC(=O)C1CCN(C(=O)Nc2cc3ccccc3s2)CC1 | 187.8
Cc1ccc2nc(CN(C)Cc3cnc(N4CCOCC4)nc3)[nH]c2c1 | 7.3
COc1ccccc1-c1nc(Cn2nnc(C(=O)Nc3cccc(Cl)c3)c2C)c(C)o1 | 141.8
O=C1Nc2ccccc2C1=NC1CCN(Cc2ccccc2)CC1 | 39.9
COc1cccc(CNC(=O)N2CCc3nc(-c4ccccc4)sc3C2)c1 | 32.7
O=C(O)c1ccc(-c2ccn[nH]2)cc1Cl | -0.2
CCN1c2ccc(F)cc2C(=O)NC12CCN(C(=O)c1cc(C)cc(C)c1)CC2 | 29.1
CN1C(=O)c2cc(NC(=O)Cc3cccs3)ccc2OC[C@@H]2O[C@H](CC(=O)N[C@H]3CCN(Cc4ccccc4)C3)CC[C@@H]21 | -41.6
COc1ccc(CN2C[C@@H](O)COC[C@H]3O[C@@H](CC(=O)N(C)C)CC[C@@H]32)cc1 | 39.9
Fc1cnc(N2CCC[C@]3(C[C@@H](Oc4ccccn4)CO3)C2)nc1 | -17.6
CC(C)n1cnc(C2CN(S(C)(=O)=O)c3ccc(C(=O)N4CCC(N(C)C)CC4)cc32)n1 (stereo unspecified) | 69.5
COc1nccnc1-c1ccc(NC(C)=O)cc1 | 0.2
CN1CC2(CCN(C(=O)c3ccc4c(=O)n(C)cnc4c3)C2)OC1=O (stereo unspecified) | -34.4
Cn1cnc2cc(C(=O)N3CC(C(=O)NCCc4ccc(F)cc4)C3)ccc21 | 1.3
CO[C@@H]1CN(C)C(=O)c2cc(NC(C)=O)ccc2OC[C@@H](C)N(S(C)(=O)=O)C[C@@H]1C | 73.7
Cc1ccc(CNC(=O)c2cnc(-c3ccc(F)cc3)[nH]2)cc1 | 61.1
Cc1cccc(NC(=O)CSc2nnc(Cn3cnc4ccccc43)o2)c1 | 21.8
O=S(=O)(c1ccc(F)c(Cl)c1)N1CCc2nc(-c3ccccc3)sc2C1 | 16.3
CCC(=O)NC1CC2(CCN(c3ncccn3)CC2)Oc2ccccc21 (stereo unspecified) | 1.7
Cc1ccc(S(=O)(=O)Nc2cc(-c3ccc(Cl)cc3)nn2C)cc1 | 35.2
CCN1CCO[C@H]2CN(S(=O)(=O)c3cccs3)CC[C@@H]2C1 | 1.6
CN(CC1(CO)CCCC1)C(=O)Cc1ccncc1 | 27.7
CN(C)CCOCC1CN(C(=O)c2ccccn2)Cc2ccnn2C1 (stereo unspecified) | 6.7
COc1ccc2c3c(n(C)c2c1)[C@H](CO)N(Cc1cc(F)ccc1F)CC31CN(C(=O)C2CC2)C1 | u
CCOC(=O)c1cccc(NC(=O)N2CCC3(CC2)Nc2cc(OC)ccc2-n2cccc23)c1 | 186.2
CCOC(=O)c1c(C)[nH]c(CCC(=O)NCCc2c[nH]c3ccccc23)c1C | i
COc1ccc2c(O[C@H]3CC4C(=O)N(C)CCCC/C=C\[C@@H]5C[C@@]5(C(=O)NS(=O)(=O)C5CC5)NC(=O)[C@@H]4C3)cc(-c3nc(C(C)C)cs3)nc2c1C (stereo partly specified) | -74.0*
COc1ncc(C2(O)CCN(C(=O)C(c3cccs3)c3cccs3)CC2)c(OC)n1 | -10.1
CN(Cc1cccnc1)C1CCC[C@@H]2CN(C(=O)C3CC3)C[C@@H]12 (stereo partly specified) | -2.3
Cc1nc(NCCCN2CCC(C(N)=O)CC2)cc(C(C)C)n1 | 13.4
COC1CC2(CCN(C(=O)c3ccnnc3)CC2)C1 | -15.7
COCc1nc(NCCN2CCC(c3ccccc3)C2)c2cnn(C)c2n1 (stereo unspecified) | -4.6
N#Cc1c(C2CCCCC2)[nH]c(=S)[nH]c1=O | 53.2
CCOc1ccccc1-c1ccc(C(=O)NC2CC2)cc1 | u
CC(C)C1CN(Cc2ccc(C(=O)O)cc2)CCCN1CC1CC1 (stereo unspecified) | 3.6
COc1ccc(S(=O)(=O)NC(C)C)cc1N | -21.0
Cc1c(S(=O)(=O)c2ccccn2)c(N)n(Cc2ccccc2)c1C | 34.7
O=C1NCC2(CCN(c3ccnc(C(=O)NCCc4ccccc4)c3)CC2)O1 | 22.9
O=S(=O)(c1cccc(F)c1)N1CC[C@H]2[C@H](CO)Nc3ccc(C#Cc4ccccc4F)cc3[C@H]21 | 4.8
O=C(c1cccc(F)c1)N1CCCCN2[C@@H](CO)[C@@H](c3ccc(C#CC4(O)CCCC4)cc3)[C@@H]2C1 | 4.5
Cc1nc2ccc(C(=O)N3CCN(Cc4ccco4)C(CCO)C3)cc2[nH]1 (stereo unspecified) | -5.6
CCN(C(=O)CN1C(=O)CCc2cc(S(=O)(=O)N3CCCCC3)ccc21)c1ccc(OC)cc1 | -21.1
CN1C[C@H]2[C@@H](c3ccccc31)[C@@H](CO)N2S(=O)(=O)c1ccccc1 | 0.9

(further entries)
canonical_smiles | Tgondii IFNg
Cc1cc(C)n(CC(=O)N2CCCC3(C2)Nc2cccnc2NC3=NC2CCCC2)n1 (stereo unspecified) | 64.9
CCn1c(C2CCN(C(=O)c3ccc(-c4ncc[nH]4)s3)CC2)n[nH]c1=O | -47.1
Cc1ccc(Oc2ncccc2CNC(=O)CCc2nc3ccccc3[nH]2)cn1 | 10.3
C[C@@H]1CN([C@@H](C)CO)C(=O)c2cc(NC(=O)Nc3ccc(C(F)(F)F)cc3)ccc2O[C@@H](C)CCCCO[C@@H]1CN(C)S(=O)(=O)c1ccc(Cl)cc1 | 213.0
Cc1cccc(OC(C)c2nnc(NC(=O)c3ccc(C)n(C)c3=O)s2)c1C (stereo unspecified) | -59.6
O=C(O)CC1=Nn2c(nnc2-c2cccs2)SC1 | 58.9
CCS(=O)(=O)Nc1ccc2c(c1)C(=O)N(C)[C@H]1CC[C@@H](CC(=O)NCc3ccc(OC)cc3)O[C@@H]1CO2 | 19.0
CCCCNC(=O)OCCSCCS(=O)(=O)c1ccc(Cl)cc1 | -39.0
Cc1nnc(-c2ccccc2/C=C/c2ccccc2)o1 | -31.7
O=S(=O)(Oc1ccccc1N1CCOCC1)c1cc(Cl)sc1Cl | -32.3
COCc1cc(C)nc2sc3c(=O)n(Cc4ccco4)nnc3c12 | 3.5
O=C(Cc1ccc(F)cc1)N1CCC2(CC1)COCCN(c1ncccn1)C2 | -14.6
Cc1nc(N2CC[C@@H](N3CCOCC3)[C@H](O)C2)cc(-n2cccn2)n1 | -0.2
CSc1c(C#N)c(-c2cc(C(C)(C)C)oc2C)nn1C | 35.5
COc1cc2nc[nH]c(=O)c2cc1OC | -17.9
CCc1nc(C)c(C(=O)N2CCN(c3nsc4ccccc34)CC2)o1 | 3.5
Cc1ccccc1S(=O)(=O)N1CCC2(CC1)Nc1cc(F)ccc1-n1cccc12 | 40.1
Cn1nc(C2CCN(c3ncccc3C(N)=O)CC2)n(-c2ccccc2)c1=O | -64.5
CC1CCCc2sc3ncn(N)c(=N)c3c21 (stereo unspecified) | -4.7
O=c1cc(Cn2cncn2)nc2n1CCCN(Cc1ccoc1)C2 | 1.6
COc1ccc(CN(C)C(=O)Nc2n[nH]c(Cc3ccccc3)n2)cc1 | -20.1
N#Cc1ccccc1N1CC2(CCCCN2CC2CC2)CC1=O (stereo unspecified) | 6.4
COc1ccc(S(=O)(=O)N2C[C@H](O)COC[C@H]3O[C@@H](CC(=O)N[C@@H]4CCN(Cc5ccccc5)C4)CC[C@@H]32)cc1 | -13.7
Nc1ccc(-n2cnc(-c3cccs3)c2)cn1 | 35.5

3 of the compounds above, as labelled records:
Cn1nc(C2CCN(c3ncccc3C(N)=O)CC2)n(-c2ccccc2)c1=O
  Tgondii IFNg = -64.5

CC1CCCc2sc3ncn(N)c(=N)c3c21 (stereo unspecified)
  Tgondii IFNg = -4.7

O=c1cc(Cn2cncn2)nc2n1CCCN(Cc1ccoc1)C2
  Tgondii IFNg = 1.6

More entries follow:
smiles	Tgondii IFNg
COCc1nc(SCC(=O)OC)c(C#N)cc1C(=O)OC	87.1
Cc1cccc(S(=O)(=O)N2C[C@H]3[C@@H](c4ccccc42)[C@H](CO)N3Cc2ccc3c(c2)OCO3)c1	-0.6
COc1ccc(-c2nc3cnccn3c2NCCC(=O)N2CCC(C)CC2)cc1	155.9
O=C(CC1N=C2c3ccccc3N=C(SCc3ccccc3Cl)N2C1=O)NCc1ccc(F)cc1 (stereo unspecified)	-10.3
O=C(CN1CCNCC1)NC1CCCCC1	5.9
O=C(Cc1ccccc1)N1CCC2(CC1)CN(c1ncccn1)CC21CCNC1=O (stereo unspecified)	31.3
CS(=O)(=O)NC[C@@H]1OC[C@@H]2CN(c3ccccn3)CC[C@@H]21	10.7
CCn1c(=O)c(C(=O)Nc2ccc(C)c(C)c2)c(O)c2ccccc21	50.3
O=C(C1CCCO1)N1CCC(NCCN2CCc3ccccc32)CC1 (stereo unspecified)	11.6
O=C(CCn1cnc2ccccc2c1=O)NCCc1cc(Cl)c2c(c1)OCCO2	-9.7
CCc1nc(CN(C)CCC(=O)NC2CCCCCC2)no1	-2.2
S=c1sc(Nc2cc(Cl)ccc2Cl)nn1-c1ccccc1	-67.8
COc1ccc(C)cc1S(=O)(=O)NCCc1sc(-c2cccc(F)c2)nc1C	59.1
O=C(c1ccoc1)N1CC[C@@H]2C[C@H](c3nccs3)O[C@H]2C1	-4.8
O=C(NCc1ccccc1C(F)(F)F)C1CC12CCN(C(=O)C13CC4CC(CC(C4)C1)C3)CC2 (stereo unspecified)	3.3
C[C@H]1CN([C@@H](C)CO)C(=O)CCCn2nncc2CO[C@H]1CN(C)S(=O)(=O)c1ccc2c(c1)OCCCO2	-7.2
COc1ccccc1C1CNC(=O)c2nc(CCCN3CCCC3)[nH]c2C1 (stereo unspecified)	-5.4
C[C@@H]1CN([C@H](C)CO)C(=O)c2cc(-c3ccc(C#N)cc3)cnc2O[C@@H]1CN(C)Cc1cccnc1	53.3
Cc1ccc(N2CCC3(CC(=O)N(c4ccc(F)c(F)c4)C3)C2)nn1 (stereo unspecified)	65.3
Cc1ccc(-c2coc(-c3ccc(NC(=O)c4cccs4)cc3)n2)c(C)c1	-38.7
COc1cc(F)c(-c2nccn2CCCN2CCOCC2)cc1OC	5.5
C=CCN1CC2(CCN(Cc3ccc4c(c3)OCO4)CC2)OCC1=O	7.2
COC(F)(C(=O)NC12CC3CC(CC(C3)C1)C2)C(F)(F)F (stereo unspecified)	-7.9
CC(C)C(CNC(=O)c1ccc2c(c1)nnn2C1CCCCC1)N(C)C (stereo unspecified)	-15.4
CC(=O)N1CCC2O[C@H](COCC(=O)N3CCCC3)CCC21 (stereo partly specified)	97.8
COc1cc2c(cc1CN1CCOC(CCNC(C)=O)C1)OCO2 (stereo unspecified)	3.2
O=C(CCN1CCOCC1)N1CCC(COc2ccc(Cl)cc2)CC1	-20.0
CN(C)c1cc(OC2CCN(C(=O)c3cccc4[nH]ccc34)C2)ncn1 (stereo unspecified)	-34.4
C=CCN1C(=O)C2(c3ccccc31)c1[nH]c3ccccc3c1CCN2C(C)=O (stereo unspecified)	183.4
Cc1occc1C(=O)N1CCCC(O)(CO)CC1 (stereo unspecified)	8.8
CN(C)C1CCN(C(=O)c2ccnn2-c2ccc3ccc(-c4ccccc4)cn23)CC1	-100.9*
CN(C)C(=O)c1cccc(-c2ccc3c(c2)[C@@H]2[C@@H](CCN2Cc2nccs2)[C@@H](CO)N3)c1	6.4

Laid out differently: results already given
CC(=O)N1CCC2O[C@H](COCC(=O)N3CCCC3)CCC21 (stereo partly specified)
  Tgondii IFNg = 97.8

COc1cc2c(cc1CN1CCOC(CCNC(C)=O)C1)OCO2 (stereo unspecified)
  Tgondii IFNg = 3.2

O=C(CCN1CCOCC1)N1CCC(COc2ccc(Cl)cc2)CC1
  Tgondii IFNg = -20.0

(continued)
smiles	Tgondii IFNg
COc1cc(C(=O)CCN2CCC(c3ccccc3)C2)cc(OC)c1OC (stereo unspecified)	11.1
Cc1ccc(NC(=O)CCS(=O)(=O)Cc2ccccc2)c(Br)c1	-53.1
CCN(CC)C(=O)c1sc(NC(=O)c2c(OC)cccc2OC)c(C#N)c1C	-82.9*
CCC1CCCCN1C(=O)c1cnn(-c2nccc(-c3cc(C)sc3C)n2)c1COC (stereo unspecified)	11.2
O=C(NCCc1ccccc1)c1ccc(Nc2ccc(OCc3ccccc3)cc2)nc1	9.8
S=c1n(CN2CCOCC2)nnn1C1CCCCC1	-5.9
CN(Cc1ccco1)C(=O)C1CCCN(C2CCN(Cc3ccncc3)CC2)C1 (stereo unspecified)	-0.6
CCCCC(=O)Nc1ccc(C)cc1NC(=O)c1cc(C(C)C)on1	-50.3

The list is partial, so the mix of outcomes need not match the whole.
